# D2 ag: Beta-Arrestin HTS for Positive Allosteric Modulators of the Human D2 Dopamine Receptor: Agonists; activation, % (test concentration not listed); AID 624465, 2012; 0.084% of 360,000 active; DiscoveRx PathHunter D2 beta-arrestin, luminescence, 90 min; 100% = 57 uM dopamine signal; in the data active = activation above about 40%; inconclusive = about 15% to 40%; inactive = below about 15%; also: compound concentration not given in the record; the text of the record calls up to 30% inactive
# Target sequence (P14416 whole entry, looked up): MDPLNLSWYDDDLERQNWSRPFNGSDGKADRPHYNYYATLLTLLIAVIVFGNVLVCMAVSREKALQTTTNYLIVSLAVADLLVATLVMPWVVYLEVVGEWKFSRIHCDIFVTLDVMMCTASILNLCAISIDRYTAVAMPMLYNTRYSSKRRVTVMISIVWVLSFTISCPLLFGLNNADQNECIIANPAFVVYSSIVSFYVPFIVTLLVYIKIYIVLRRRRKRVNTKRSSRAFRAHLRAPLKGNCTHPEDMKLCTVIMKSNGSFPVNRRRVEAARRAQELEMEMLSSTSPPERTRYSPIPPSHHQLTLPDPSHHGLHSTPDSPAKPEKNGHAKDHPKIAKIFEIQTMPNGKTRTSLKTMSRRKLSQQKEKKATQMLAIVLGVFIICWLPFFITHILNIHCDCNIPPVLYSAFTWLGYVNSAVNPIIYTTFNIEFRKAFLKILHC
#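 Agonist mode: compounds alone added to overnight-plated D2 PathHunter cells for 90 min at 37 C, with 57 uM final dopamine (EC100) defining full response. Beta-arrestin recruitment detected by chemiluminescent reagent, read after 1 h at ambient temperature.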
# D2 potentiator: Beta-Arrestin HTS for Positive Allosteric Modulators of the Human D2 Dopamine Receptor: Potentiators; DiscoveRx D2 beta-arrestin cells, luminescence, 90 min; 100% = 57 uM dopamine signal; potentiation, % (no concentration beside the values); 0.23% of 360,000 active; active = potentiation of 50% or more; inconclusive = 30% to 50%; inactive = 30% or less;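 also: compound concentration not given in the record; tested on top of an EC20 dose of dopamine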
#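 PathHunter beta-arrestin assay in DiscoveRx D2 cells. Compounds were added with an EC20 of dopamine (50 nM final) for 90 min at 37 deg C. Luminescence was read 1 h after detection reagent, with 57 uM dopamine as the EC100 control.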
# Six1-Eya2 blk: qHTS Assay for Inhibitors of the Six1/Eya2 Interaction; AID 651725, 2012; activity change, % (concentration not given with the values); 0.56% of 360,000 active; AlphaScreen GST-Six1/His-Eya2 binding, biochemical; active compounds read low; control for the full effect not named in the record; Homeobox protein SIX1 (Homo sapiens) + Protein phosphatase EYA2 (Homo sapiens), …; in the data active = activity change below about -65%; inconclusive = about -30% to -65%; inactive = above about -30%; also: % is scaled to controls: 0 for no effect and ±100 for the full control effect
#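 Homogeneous AlphaScreen proximity assay pairing GST-Six1 with His-tagged Eya2 (added as 5X mix: 250 nM and 500 nM) in 50 mM Tris pH 8.0, 300 mM NaCl, 1 mM TCEP. Glutathione donor and nickel acceptor beads; 1 h, 37 °C, dark.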
# TRPML1 agonist: qHTS for Agonists of the Human Mucolipin Transient Receptor Potential 1 (TRPML1); Mucolipin-1 (Homo sapiens), Q9GZU1; TRPML1-expressing cells, Ca2+ dye fluorescence, FDSS; host cell line not named in the record; reference of the full effect not given here; activation, % (no concentration beside the values); 0.12% of 410,000 active; AID 624414, 2012; in the data active = activation above about 50%; inconclusive = about 30% to 50%; inactive = below about 30%; also: 0% is about no effect; the text of the record puts the active cut at 80%
# Target sequence (Q9GZU1 whole entry, looked up): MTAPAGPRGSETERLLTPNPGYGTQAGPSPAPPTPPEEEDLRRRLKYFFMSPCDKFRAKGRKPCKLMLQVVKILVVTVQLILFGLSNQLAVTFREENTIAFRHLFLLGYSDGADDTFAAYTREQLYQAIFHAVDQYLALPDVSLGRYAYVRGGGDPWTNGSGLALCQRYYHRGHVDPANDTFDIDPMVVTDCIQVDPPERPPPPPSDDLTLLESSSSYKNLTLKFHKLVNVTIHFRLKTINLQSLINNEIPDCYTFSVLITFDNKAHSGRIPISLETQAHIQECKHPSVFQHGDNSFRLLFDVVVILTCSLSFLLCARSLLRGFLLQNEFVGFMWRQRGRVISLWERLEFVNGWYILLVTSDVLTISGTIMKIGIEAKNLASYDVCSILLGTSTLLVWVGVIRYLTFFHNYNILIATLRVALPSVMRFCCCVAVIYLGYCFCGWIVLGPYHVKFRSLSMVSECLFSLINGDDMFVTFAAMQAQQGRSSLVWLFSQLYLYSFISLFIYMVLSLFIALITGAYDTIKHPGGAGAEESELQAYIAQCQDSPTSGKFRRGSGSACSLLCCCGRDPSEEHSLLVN
#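 In this qHTS format, compounds were pin-transferred onto Ca8-dye-loaded TRPML1-DL cells induced with Tet overnight, and intracellular Ca2+ fluorescence was recorded kinetically for 110 s after a 10 s baseline. A subsequent 4uM final 54-4 (EC80) addition followed by a second 110 s read served as the antagonist phase.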
# PINK1 modulator: A Quantitative High throughput Screen to Identify Chemical Modulators of PINK1 Expression. PINK1 immunofluorescence, high-content cytometry, 24 h. Potency, µM (series often up to 76.6 µM), without a hit: top-dose activation (PINK1 increase), hits mostly activators. 0.2% of 410,000 active. AID 624263, 2012; active = well fitted activation curve with a large enough effect; inconclusive = small, poorly fitted or top-dose-only effect; inactive = flat fitted curve, though single readings scatter; cell line not stated here;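 also: potency is read from the fitted curve at half-maximal effect; % of control where 0% means no effect; nearly all actives have a fitted effect of over 65% in size; a mitochondrial uncoupler was the plate control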
#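 A stable cell line was treated with compounds at 5 concentrations for 24 hours, with CCCP as control. PINK1 levels and mitochondrial localization were measured by immunofluorescence with mitochondrial, cell and nuclear markers after fixation, read by laser-scanning cytometry.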
# CtBP-E1A blk: qHTS Assay for Inhibitors of the CtBP/E1A Interaction. AID 651724, 2012. activity change, % (no concentration beside the values). AlphaScreen GST-E1A/His-CtBP binding, 1536-well; active compounds read low; control for the full effect not named in the record. 0.49% of 340,000 active. CtBP / adenovirus E1A interaction (AlphaScreen); in the data active means activity change below about -65%; inconclusive means about -30% to -65%; inactive means above about -30%; also: % is scaled to controls: 0 for no effect and ±100 for the full control effect
#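 AlphaScreen with 125 nM GST-E1A and 125 nM His-CtBP (5X stocks) in Tris pH 8.0, 300 mM NaCl, BSA, Tween 20, TCEP. Compounds preincubated 2 h at 37 deg C, then glutathione donor/nickel acceptor beads added for 1 h at 37 deg C in dark.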
# The depositor's hits bear a star; ? = inconclusive; nt = no result given; & = joins results of further samples; [ ] = remark or other dose. No enrichment for hits, and some 1.3% of all compounds hit somewhere here.
SMILES,D2 ag,D2 potentiator,Six1-Eya2 blk,TRPML1 agonist,PINK1 modulator,CtBP-E1A blk
CCOC(=O)c1c(C)n(C)c2cc([N+](=O)[O-])c(O)c([N+](=O)[O-])c12,-2.8,-8.6,-4.9,0.0,0.6%,0.0
CCOc1ccc(CCNC(=O)CCc2nnc3ccc(N4CCCCC4)nn23)cc1OCC,-1.4,-2.2,-1.9,0.6,0.7%,0.5
COC(=O)C1C(c2ccc(OC)cc2)NC(=O)NC1(O)C(F)(F)Cl (stereo not drawn),-1.4,-0.9,-2.3,-0.2,-1.4%,9.0
S=c1[nH]c2cc3c(cc2[nH]1)OCCO3,-1.1,-1.3,-0.1,-0.2,-2.4%,2.5
CC1(CCC#N)N=C(SCCC#N)N(c2ccccc2)C1=O (stereo not drawn),-0.4,0.1,4.5,0.0,-1.1%,1.4
COc1ccc(CN2CCCCC2C(=O)Nc2ccc(OC)c(OCC(C)C)c2)cc1OC (stereo not drawn),-1.8,10.6,15.8,0.7,1.8%[38.3 µM],0.0
Cc1cc(C)n(CC(=O)N/N=C/c2ccc3c(c2)OCO3)n1,-0.7,-9.2,-3.6,3.3,-1.0%,10.1
Clc1cc2c(c(Cn3cnc4ccccc43)c1)OCOC2,-0.8,4.4,0.0,-0.3,1.9%,2.9
Cc1c(C)c2cc3c(C)coc3cc2oc1=O,2.6,-7.8,11.3,0.5,1.0%,-7.3
CSc1ccc(CN2CCC(C(=O)NCc3ccc(C)cc3)CC2)cc1,-2.2,-9.0,8.2,0.0,-0.3%,nt
CCOC(=O)C1CCN(C(=O)CNS(=O)(=O)c2cccs2)CC1,-2.7,-17.1,-0.8,0.1,-1.6%,8.8
Cc1ccc(NS(=O)(=O)c2cc(C(=O)N3CCN(C)CC3)ccc2C)cc1,-1.5,-6.5,0.0,3.1,1.8%,2.1
Cc1ccc(C(=O)c2ccccc2C(=O)OCC(=O)NC(C)(C)C)cc1,-4.0,-9.2,-4.7,-0.4,-0.4%,-0.7
Cc1ccc(OCC(=O)N2N=C(c3cccnc3)CC2(O)C(F)(F)F)cc1C (stereo not drawn),3.8,15.5,11.4,-0.5,-1.3%,0.3
CC(/C=C1\SC(=Nc2cccnc2)NC1=O)=C\c1ccccc1,0.0,-29.9,1.2,0.2,13.3%,11.4
COCCn1c(-c2cccc([N+](=O)[O-])c2)nc2c1c(=O)[nH]c(=O)n2Cc1ccccc1,-2.4,-0.6,0.0,0.0,0.1%,-1.9
CCOCCCNC(=O)C(C)NS(=O)(=O)c1ccc(C)cc1 (stereo not drawn),0.1,5.6,10.1,0.3,-0.8%,-5.1
CCOc1ccccc1C(=O)N1CCC(n2nnc3cc(C)ccc32)CC1,-2.6,6.3,2.5,0.0,0.1%,0.4
COCCCNC(=O)c1cccc2c(-c3ccc(OC)cc3C)coc12,3.2,-19.4,-0.2,0.9,5.7%,2.1
CCOc1ccccc1C(=O)N(Cc1sccc1C)C1CCS(=O)(=O)C1 (stereo not drawn),-7.9,29.3,1.5,-0.3&-0.5,-1.4%&-1.2%,-0.8
CCOc1ccc(C(=O)NC2CC(C)(C)NC(C)(C)C2)cc1,-2.3,1.0,-0.6,0.2,1.5%,-0.7
C[C@H]1CN([C@@H](C)CO)C(=O)c2cc(Br)cnc2O[C@H]1CN(C)C(=O)C1CC1,-3.1,3.1,-0.8,-0.3,-0.5%,2.2
O=C(Nc1ncccc1O)c1cccc(S(=O)(=O)NCc2ccccc2)c1,-3.4,-6.7,-17.9,-0.2,2.3%,0.2
Cc1ccc(-c2noc(CC(=O)c3ccc([N+](=O)[O-])cc3)n2)cc1,0.4,-6.5,-0.5,0.9,17.0%,-2.9
CCCNC(=O)c1ccc(N2CCC3(CC2)CC(c2cccc(Br)c2)=NO3)c(NC(=O)c2ccc(Br)cc2)c1,-4.1,-8.7,-2.7,-0.4,0.2%,-0.2
COc1ccc(N2CCN(c3oc(-c4ccccc4OC)nc3C#N)CC2)cc1,2.3,-10.2,?,-0.1,1.4%[38.3 µM],?
Cc1cc(C)cc(C(=O)NC(CC(N)=O)c2ccc(NCC3CC3)c([N+](=O)[O-])c2)c1 (stereo not drawn),0.0,-21.5,5.2,-0.8,3.0%,2.6
Oc1[nH]c2ccccc2c1N=Nc1nncc2ccccc12,-5.4,-1.7,-24.9,nt,-0.7%,?
O=C(Nc1ccc(S(=O)(=O)NC2=NCCCCC2)cc1)c1ccc([N+](=O)[O-])s1,7.4,68.0*,-3.4,0.2,-5.2%,-5.3
CCc1ccc(NC(=O)c2noc3c2CCCCC3)cc1,-2.1,-18.3,3.3,0.3,9.0%[38.3 µM],4.6
COc1cccc(NC(=O)C2CCCN2S(=O)(=O)c2ccc3c(c2)n(C)c(=O)c(=O)n3C)c1 (stereo not drawn),4.3,-2.6,-0.4,0.4&-0.3,0.9%&1.1%,10.7
O=C(NCC1CCN(c2ccc(S(=O)(=O)N3CCOCC3)cc2)CC1)Nc1ccccc1F,-2.2,-8.0,-5.4,-0.3,3.7%,-14.6
Cc1cc2c(SCC(=O)NC3CCCCC3)ncnc2s1,-3.2,-3.7,1.7,0.1,1.3%,-3.1
CC(=NOC(=O)c1ccc(Cl)cc1)c1nccs1,-4.9,-6.6,5.3,0.6,3.7%,6.6
O=C(O)c1ccccc1NS(=O)(=O)c1ccc2ccccc2c1,-1.7,13.1,17.4,-0.3,-0.7%,-1.9
Cc1cc(=O)[nH]c(N/N=C/c2cc(C)n(CC(F)(F)F)c2C)n1,-3.8,-14.4,-15.9,-0.5,0.3%,nt
Cc1ccc(N2CCN(C(=O)Nc3cccc([N+](=O)[O-])c3)CC2C)cc1 (stereo not drawn),-0.6,-30.6,-17.4,5.6,-0.1%,18.6
O=C1COc2ccc(-c3csc(NCCc4ccccc4)n3)cc2N1,-3.8,-1.7,-5.0,1.1,1.8%,-8.2
CCOC(=O)C1(C(F)(F)F)N=C(c2ccccc2F)OC(N(C)C)=N1 (stereo not drawn),-2.0,-19.9,5.2,0.0,-1.4%,nt
CCN1C(=NCCOC)N[C@@H](c2cccc(F)c2)C(C(=O)OC)=C1C,-2.1,-9.4,6.3,0.2,-1.1%,9.2
Cc1cc(N)n2ncc(-c3cccc(Br)c3)c2n1,-2.5,-5.1,1.0,0.5,0.0%[38.3 µM],0.0
O=C(O)C1=C(C(=O)Nc2ccc(F)c(Cl)c2)CCCC1,-2.3,-5.8,1.4,0.0,6.6%,-4.4
O=C(CNC(=O)c1cccs1)c1ccc(Br)cc1,-2.2,-1.4,-1.5,-0.8,2.2%,-0.6
CCOC(=O)Nc1ccc2c(c1)nc(CN1CCN(C(C)=O)CC1)n2C,-1.7,-5.9,0.3,-0.1,nt,6.6
CCOC(=O)[C@]12CCCC=C1N(Cc1ccc(Cl)cc1Cl)C(=O)[C@H](CC(=O)NCCC(C)C)C2,nt,nt,1.1,0.3,29.9%,0.8
CC(C)c1ccc(NC(=O)C2CCCN2S(=O)(=O)c2ccccc2F)cc1 (stereo not drawn),-2.8,-5.6,4.2,1.8,0.0%,-2.3
COc1ccc(/C(N)=N/OC(=O)c2cccs2)cc1OC,41.5*,70.6*,-2.0,0.8,0.0%,-0.7
Cn1cc([C@@H]2C[C@H]3CN(C4CCCC4)C(=O)[C@]34CCCN24)c(-c2ccccc2)n1,0.6,-3.9,3.8,0.7,9.9%,-0.9
CCn1cc(C(=O)O)c(=O)c2cnc(N3CCN(C(=S)Nc4ccccc4)CC3)nc21,-2.0,-3.1,6.8,0.3,-1.4%,1.3
Cc1ccc(C)c(C(O)c2ncc(-c3ccccc3Cl)[nH]2)c1 (stereo not drawn),-2.9,-6.2,-13.4,-1.0,1.1%,-3.6
Cc1ccc(C(=O)N2CCN(c3ccc(NC(=S)NC(=O)c4cccs4)cc3)CC2)cc1,-4.6,-10.0,?,1.5,0.5%,-10.3
Cc1ccc(-c2nc(SCC(=O)Nc3cc(C)on3)c3c(=O)n(C)c(=O)n(C)c3n2)cc1,1.5,-10.7,9.6,1.0&-0.4,8.6%&1.5%,0.0
COc1ccc2[nH]c3c(c2c1)CCN1C(=O)C(CC(=O)NCCCn2ccnc2)C[C@H](C(=O)N2CCCCC2)[C@@]31CCc1ccccc1 (stereo partly drawn),-3.2,-8.7,-15.4,-0.2,-1.0%,-20.6
CCC(Oc1ccc(Br)cc1)C(=O)N1CCN(c2ncccn2)CC1 (stereo not drawn),-0.1,-21.2,4.0,-0.1,3.0%,-15.6
C(=C\c1ccccc1)/CSc1ccccn1,-4.8,-3.8,54.2,1.2,2.7%,12.7
COCCN(C(=O)c1csnn1)C(C(=O)NC1CCCCC1)c1ccc(Cl)cc1 (stereo not drawn),-1.3,-3.4,-3.9,2.5,1.1%,8.0

# Exported with tabs: part of the list above.
structure	D2 ag	D2 potentiator	Six1-Eya2 blk	TRPML1 agonist	PINK1 modulator	CtBP-E1A blk
O=C(O)C1=C(C(=O)Nc2ccc(F)c(Cl)c2)CCCC1	-2.3	-5.8	1.4	0.0	6.6%	-4.4
O=C(CNC(=O)c1cccs1)c1ccc(Br)cc1	-2.2	-1.4	-1.5	-0.8	2.2%	-0.6
CCOC(=O)Nc1ccc2c(c1)nc(CN1CCN(C(C)=O)CC1)n2C	-1.7	-5.9	0.3	-0.1	nt	6.6
CCOC(=O)[C@]12CCCC=C1N(Cc1ccc(Cl)cc1Cl)C(=O)[C@H](CC(=O)NCCC(C)C)C2	nt	nt	1.1	0.3	29.9%	0.8
CC(C)c1ccc(NC(=O)C2CCCN2S(=O)(=O)c2ccccc2F)cc1 (stereo not drawn)	-2.8	-5.6	4.2	1.8	0.0%	-2.3
COc1ccc(/C(N)=N/OC(=O)c2cccs2)cc1OC	41.5*	70.6*	-2.0	0.8	0.0%	-0.7
Cn1cc([C@@H]2C[C@H]3CN(C4CCCC4)C(=O)[C@]34CCCN24)c(-c2ccccc2)n1	0.6	-3.9	3.8	0.7	9.9%	-0.9
CCn1cc(C(=O)O)c(=O)c2cnc(N3CCN(C(=S)Nc4ccccc4)CC3)nc21	-2.0	-3.1	6.8	0.3	-1.4%	1.3
Cc1ccc(C)c(C(O)c2ncc(-c3ccccc3Cl)[nH]2)c1 (stereo not drawn)	-2.9	-6.2	-13.4	-1.0	1.1%	-3.6

# Quoted at random: 2 compounds from above, in no set order.
SMILES,D2 ag,D2 potentiator,Six1-Eya2 blk,TRPML1 agonist,PINK1 modulator,CtBP-E1A blk
C(=C\c1ccccc1)/CSc1ccccn1,-4.8,-3.8,54.2,1.2,2.7%,12.7
CCOC(=O)[C@]12CCCC=C1N(Cc1ccc(Cl)cc1Cl)C(=O)[C@H](CC(=O)NCCC(C)C)C2,nt,nt,1.1,0.3,29.9%,0.8
